MT1-MMP act inh: blocks activation of human MT1-MMP; P50281; HT1080 RFP-PRO-GFP cells, GFP/RFP ratio fluorescence, overnight; percent of plate control window, DMSO zero; GFP/RFP ratio change, % at 20 µM; 360,000 tested, 0.061% active; AID 651647;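 active = GFP/RFP ratio change of at least 30% with cell ATP level not reduced by more than half and red fluorescence within 50% of control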; note: strong numbers were not always called active
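Test system: HT1080 RFP-PRO-GFP cells; Benchmarks: DMSO and RFP-L50D-GFP cell wells; Timing: cells overnight before dosing, compound overnight, 37 °C, 5% CO2; Compound: one 20 µM compound dose with 1% DMSO; Read-out: GFP/RFP fluorescence ratio.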
eIF4H FP inh: inhibitors of RNA binding by human eIF4H. eIF4H fluorescence polarization binding assay. inhibition, % at 35 µM. 290,000 tested, 0.94% active;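 active = 50% or more with normal probe brightness, or confirmed in later tests; about a fifth of its hits are not listed in these tables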;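 note: calls also rest on retests at 20 µM and on dose response follow-up; 0% = protein and probe with vehicle and 100% = probe without protein; strong numbers were not always called active; many hits fall short of the cut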
Env fusion inh: inhibitors of HIV Env-mediated cell fusion | HeLa-JRFL Env/CEM21 cell fusion, luciferase | inhibition, % at 12.3 µM | 360,000 tested, 1.1% active;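 active = mean replicate inhibition score of at least 50 and every replicate individually at or above 50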;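 note: 0% = plate neutral controls and 100% = maraviroc near 300 nM; one replicate is shown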
Rce1 inhib: yeast Ras-converting enzyme inhibition; Q03530; yeast membranes, quenched prenylated peptide cleavage fluorescence; calls only; 290,000 tested, 0.27% active; AID 2563;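 active = fall in fluorescence gain of 50% or more versus controls, with final raw signal at or below 3038400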;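 note: plate controls were neutral control wells for no effect and wells lacking membranes for full effect; tested at 10 µM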
Target sequence (Q03530 whole entry, looked up): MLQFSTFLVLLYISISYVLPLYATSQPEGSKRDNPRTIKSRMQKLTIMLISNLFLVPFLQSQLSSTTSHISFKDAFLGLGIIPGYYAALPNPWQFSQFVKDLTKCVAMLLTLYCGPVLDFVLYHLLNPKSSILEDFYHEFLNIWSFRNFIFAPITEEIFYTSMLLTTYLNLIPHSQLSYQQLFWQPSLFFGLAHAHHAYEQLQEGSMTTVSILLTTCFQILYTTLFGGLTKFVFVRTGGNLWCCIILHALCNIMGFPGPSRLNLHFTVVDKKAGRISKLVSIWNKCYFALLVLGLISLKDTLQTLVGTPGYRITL
CSC inhib: blocks cancer stem cells | AID 2717 | cancer stem cell-like cells viability, luminescence | 300,000 tested, 1.1% active | inhibition, % at 7.5 µM;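 active = mean at 75% or more and at least half the replicates too; tested in HMLE shEcad cells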;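 note: 0% = median of negative and 100% = median of positive control wells; the first replicate is given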
Yeast UUG start: yeast start codon fidelity modulation; S. cerevisiae UUG-firefly luciferase reporter, luminescence/redox ratio; activity score, % at 18.7 µM; 350,000 tested, 0.13% active; AID 602363;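 active = replicate mean at a twofold rise or more, about +100% in these data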;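 note: firefly luciferase made from a UUG start codon reports start codon fidelity; reporter light over untreated wells divided by growth signal over untreated wells; some hits fall short of that in this replicate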
PABP FP inh: blocks human PABP binding to poly(A) RNA | P11940 | fluorescence polarization | 290,000 tested, 1% active | inhibition, % at 35 µM | AID 2014;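 active = 50% or more with normal probe brightness, or confirmed in later tests; about a fifth of its hits are not listed in these tables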;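 note: calls also rest on retests at 20 µM and on dose response follow-up; controls were probe without protein and protein plus probe with vehicle; some compounds called inactive have numbers as strong as hits; many hits fall short of the cut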
eIF4H FP inh retest: also measured in eIF4H FP inh; calls as there; inhibition, %; compound at 20 µM; confirmation average;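 mean of two retest wells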
PABP FP inh retest: second read-out of PABP FP inh, no call of its own (marks repeat the call); inhibition, %; compound at 20 µM; confirmation repeats;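 mean of two retest wells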
MT1-MMP act inh RFP: also measured in MT1-MMP act inh; calls as there; RFP signal change, %; measured here: RFP expression control read;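 0 = vehicle wells; hits needed this value within 50% of zero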
* = called active by the depositor; i = inactive; / = not tested or not shown; & = joins results of further samples; [ ] = dose if it differs, or a comment. The list is partial. The share of hits here may be higher or lower than overall.

SMILES | MT1-MMP act inh | MT1-MMP act inh RFP | eIF4H FP inh | Env fusion inh | Rce1 inhib | CSC inhib | Yeast UUG start | PABP FP inh | others
CC(C)c1ccc(CC(=O)N2CCC2(C)C(=O)Nc2ccc3c(c2)OCO3)cc1 (configuration not stated) | -3 | -15 | / | 4 | / | / | -2 | /
Cc1ccccc1N1C(=O)C2C3C=CC(C2C1=O)N(C)C3=O (configuration not stated) | 0 | 4 | -3 | -293 | i | -10 | 8 | 3
Cc1ccc(Cn2cnc3sc4c(c3c2=O)CCC4)c(C)c1 | 1 | -3 | -1 | / | i | 20 | -26 | -4
CCCCCCCC(=O)OCC(=O)[C@@]1(O)CC[C@H]2[C@@H]3CCC4=CC(=O)CC[C@]4(C)[C@H]3[C@@H](O)C[C@@]21C | 0 | 3 | -7 | i | i | -2 | 2 | -4
C[C@H]1C(=O)N(C)CCN1C(=O)c1ccccc1OC1CCN(S(C)(=O)=O)CC1 | -3 | -2 | -14 | 7 | i | -6 | / | -7
Cc1cc(C(=O)OCC(=O)N2C(C)CCCC2C)c(C)o1 (configuration not stated) | -2 | 2 | / | / | i | -7 | 1 | /
CCOc1ccccc1CNC(=O)CCCc1cn(C)c2ccccc12 | 0 | -2 | 2 | -16 | i | 0 | -18 | 4
COC(=O)c1cc(=O)c2c([N+](=O)[O-])ccc(OC)c2o1 | 3 | 4 | -6 | -12 | i | -3 | / | 5
NC(=O)CSc1nnc(-c2ccncc2)o1 | -1 | 4 | -4 | 6 | i | 5 | / | -8
COc1ccc(Cc2c(O)nc[nH]c2=O)cc1 | 0 | -1 | -6 | -47 | i | 7 | / | -4
Cc1ccc(C(=O)NC2CCCc3c2cnn3-c2ccc(F)cc2F)cn1 (configuration not stated) | 4 | -30 | -12 | / | i | 5 | -14 | -9
COCCN(Cc1ccccc1)C(=O)c1c(C)nn(-c2ccccc2)c1C | 3 | 1 | -8 | 10 | i | / | -10 | -1
CCN(c1ccc(OC)cc1)S(=O)(=O)c1ccc2c(c1)NC(=O)CS2 | -6 | -2 | -12 | 0 | i | -6 | -5 | -3
CCOC(=O)N1CCN(C(=O)c2ccc(N(Cc3ccccc3Cl)S(C)(=O)=O)cc2)CC1 | -4 | -4 | 2 | -5 | i | -9 | 1 | -4
O=c1cc(-c2ccc(O)c(-c3c(O)cc(O)c4c(=O)cc(-c5ccc(O)cc5)oc34)c2)oc2cc(O)cc(O)c12 | 5 | 0 | 12 | / | i | 16 | -9 | -6
FC(F)(F)c1ccc(CN2C[C@@H]3C(c4ccccc4)C4(c5cccnc5)CC3(C4)[C@H]2c2ccccc2)cc1 (some centres not stated) | -15 | -24 | -1 | -7 | i | 63 | -10 | -6
CCCCCCC(=O)N1CCCC(c2nc(-c3cccc(OC)c3)no2)C1 (configuration not stated) | -2 | -2 | -3 | 26 | i | -1 | -5 | 12
NS(=O)(=O)c1cccc(NC(=O)COC(=O)CCCc2c[nH]c3ccccc23)c1 | -3 | 1 | -1 | 3 | i | 6 | / | -18
Cc1ccc(NC(=O)C2CCCN(C(=O)c3ccc(Cl)cc3)C2)cc1C (configuration not stated) | 6 | -9 | -5 | -5 | i | 42 | -1 | -4
N=C1SCC(=O)N1c1ncc(Cc2ccccc2Cl)s1 | 9 | 3 | 13 | -16 | i | / | 0 | 3
CC(=O)NC12CC3CC(C1)CC(C(=O)N1CCN(S(=O)(=O)c4ccccc4C#N)CC1)(C3)C2 | 0 | 1 | / | 2 | / | / | -5 | /
CC(NC(=O)CCl)c1ccc(Cl)c(Cl)c1 (configuration not stated) | -8 | -2 | -2 | / | i | -4 | / | 18
O=C(Cc1ccc(Cl)c(Cl)c1)Nc1ccc(S(=O)(=O)Nc2ncccn2)cc1 | 2 | 3 | -21 | 12 | i | 3 | -16 | 2
O=C(CSc1nc2ccccc2c(=O)[nH]1)N1CCCCC1 | 7 | 1 | -2 | 11 | i | 3 | -8 | 1
COc1ccc(N2C(=O)CCC2=O)cc1 | 0 | 4 | 20 | 26 | i | -9 | 0 | 3
CC(C)(C)CC(=O)NC(=S)NCc1ccccc1 | 0 | -2 | 1 | 6 | i | -2 | / | 1
O=C(NCCc1csc(-c2ccccc2)n1)c1c(F)cccc1F | 3 | -1 | 7 | -19 | i | -2 | -3 | 8
CCOc1ccc(NC(=S)NC(=O)/C=C/c2ccco2)cc1 | -2 | -3 | 1 | -28 | i | 29 | -22 | -2
COc1ccc(C(C)(NC(C)=O)c2nc(-c3cc(F)cc(F)c3)cs2)cc1 (configuration not stated) | -2 | -1 | / | 8 | / | / | -3 | /
O=C(O)CCc1nn2c3ccccc3n(CC(=O)O)c2nc1=O | 2 | 2 | 5 | 0 | i | 0 | -6 | 52 | eIF4H FP inh retest=5;PABP FP inh retest=-3
CN(Cc1nc2ccccc2c(=O)[nH]1)C(=O)c1cccc(NC(=O)c2cccs2)c1 | 3 | -1 | / | -11 | / | / | -19 | /
CN(Cc1nc(-c2cccc(Cl)c2)no1)C1CCOCC1 | 2 | 6 | 4 | -44 | i | 3 | / | -4
O=C(O)CC(Cc1ccc(Cl)cc1)C(=O)NCC12CC3CC(CC(C3)C1)C2 (configuration not stated) | 1 | 3 | -12 | -6 | i | 5 | -11 | 1
C[C@H](O)C#Cc1ccc2c(c1)O[C@@H](CN(C)C(=O)c1ccncc1)[C@@H](C)CN([C@H](C)CO)S2(=O)=O | -1 | 3 | / | 4&12[16.7 µM] | / | / | -16&-3&-9 | /
N#Cc1ccc(OCc2nnc(-c3ccc([N+](=O)[O-])cc3)o2)cc1 | -1 | -2 | -14 | 10 | i | 0 | / | -8
Cc1cc(NC(=O)c2ccc(-c3ccccc3[N+](=O)[O-])o2)no1 | 1 | -2 | / | / | / | 6 | -8 | /
CCOC(=O)c1c(NC(=O)c2ccccc2Cl)sc2c1CCc1ccccc1-2 | -10 | -9 | 1 | 15 | / | 46 | / | -1
CCOC(=O)N1CCN(CC(O)COc2ccccc2C(C)(C)C)CC1 (configuration not stated) | 3 | 0 | -1 | 7 | i | / | / | 10
Cn1c(=S)[nH]c2[nH]c(=O)cnc2c1=O | 5 | 5 | -3 | -23 | i | -8 | / | 0
O=C(COc1ccc(Br)cc1)N(CCO)CCO | 9 | 9 | -3 | -15 | i | -2 | / | 2

Gathered by group: those above with four or more nitrogen atoms.
SMILES | MT1-MMP act inh | MT1-MMP act inh RFP | eIF4H FP inh | Env fusion inh | Rce1 inhib | CSC inhib | Yeast UUG start | PABP FP inh | others
NC(=O)CSc1nnc(-c2ccncc2)o1 | -1 | 4 | -4 | 6 | i | 5 | / | -8
Cc1ccc(C(=O)NC2CCCc3c2cnn3-c2ccc(F)cc2F)cn1 (configuration not stated) | 4 | -30 | -12 | / | i | 5 | -14 | -9
CC(=O)NC12CC3CC(C1)CC(C(=O)N1CCN(S(=O)(=O)c4ccccc4C#N)CC1)(C3)C2 | 0 | 1 | / | 2 | / | / | -5 | /
O=C(Cc1ccc(Cl)c(Cl)c1)Nc1ccc(S(=O)(=O)Nc2ncccn2)cc1 | 2 | 3 | -21 | 12 | i | 3 | -16 | 2
O=C(O)CCc1nn2c3ccccc3n(CC(=O)O)c2nc1=O | 2 | 2 | 5 | 0 | i | 0 | -6 | 52 | eIF4H FP inh retest=5;PABP FP inh retest=-3
CN(Cc1nc2ccccc2c(=O)[nH]1)C(=O)c1cccc(NC(=O)c2cccs2)c1 | 3 | -1 | / | -11 | / | / | -19 | /
N#Cc1ccc(OCc2nnc(-c3ccc([N+](=O)[O-])cc3)o2)cc1 | -1 | -2 | -14 | 10 | i | 0 | / | -8
Cn1c(=S)[nH]c2[nH]c(=O)cnc2c1=O | 5 | 5 | -3 | -23 | i | -8 | / | 0

New compounds follow.
SMILES | MT1-MMP act inh | MT1-MMP act inh RFP | eIF4H FP inh | Env fusion inh | Rce1 inhib | CSC inhib | Yeast UUG start | PABP FP inh | others
Cc1ccc(S(=O)(=O)N2CCOCC2)cc1C(=O)N1C(=O)c2cccc(N)c2C1=O | 1 | 6 | 57* | -39 | i | -16 | 3 | 71*
CC(=O)Nc1ccc(NC(=O)CSC2=NS(=O)(=O)c3cc(Cl)ccc3N2)cc1 | 2 | 0 | / | / | i | 7 | -11 | /
CC(C)(C)c1ccc(-c2nnc3sc(-c4ccccn4)nn23)cc1 | 7 | 3 | 27 | -22 | i | 23 | -35 | 18
COC(=O)c1ccc(Cn2cc(Cl)cn2)o1 | 1 | 2 | 1 | -18 | i | -13 | / | 2
Cc1ccc(OCc2nc3ccccc3n2C)cc1 | 0 | 1 | -2 | -168 | i | -5 | -13 | 4
COc1ccc(C(=O)COC(=O)c2ccc3ccccc3n2)cc1 | 7 | 13 | 0 | -5 | i | 9 | -4 | -2
CCN(CCCNC(=O)C1CCC(=O)N1Cc1ccccc1Cl)c1cccc(C)c1 (configuration not stated) | 1 | 0 | -2 | -47 | i | 1 | 1 | -3
Cc1c(Nc2nc3ccccc3nc2NS(=O)(=O)c2cccc(Cl)c2)c(=O)n(-c2ccccc2)n1C | 0 | 1 | -3 | -6 | i | -7 | / | 3
COc1ccc(-c2cccc(-c3cc(=O)oc4cc5c(cc34)OCO5)c2)cc1 | -3 | -7 | / | -17 | / | / | -19 | /
O=C1C(=O)N(CCN2CCCCC2)c2ccccc21 | 0 | 4 | 6 | / | i | -5 | -6 | 8
Cc1ccc(S(=O)(=O)c2nc(-c3ccccc3)oc2NCCCN2CCOCC2)cc1 | 5 | 0 | -9 | 8 | i | / | -12 | 21
O=C(CSc1nccc(=O)[nH]1)NC1CCCCCCC1 | 1 | 3 | / | -2 | / | -14 | 7 | /
COC(=O)c1ccc(CSc2nc3c(cnn3-c3ccc(Cl)cc3)c(=O)[nH]2)o1 | -3 | -5 | 6 | / | / | / | -17 | 1
COc1ccc(C2C=C(c3ccc(F)cc3)NC(=S)N2)cc1OC (configuration not stated) | -2 | 0 | -7 | -10 | i | -22 | / | -4
O=S(=O)(c1ccccc1)N1N=C(c2ccccc2)CC1c1ccco1 (configuration not stated) | / | / | -2 | / | i | 6 | / | 7
COC(=O)NCC(C)OC(=O)Nc1cccc(Cl)c1 (configuration not stated) | 4 | 4 | 6 | / | i | -4 | -10 | 5
Cc1ccccc1C(=O)Nc1ccc(N2CCCCCC2)cc1 | -3 | -8 | 8 | -177 | i | 3 | -5 | 13
COc1cc2c(cc1OC)C(c1ccc([N+](=O)[O-])cc1)NC(=O)C2 (configuration not stated) | 3 | 5 | -2 | -17 | i | -4 | 17 | 4
COc1cc2c(cc1OC)C(C)N(S(=O)(=O)c1ccc(C)cc1)CC2 (configuration not stated) | 7 | 5 | -1 | 12 | i | / | -1 | 3

Source: PubChem
